# From PubChem BioAssay
# Vaccinia Venus: qHTS for Stage-Specific Inhibitors of Vaccinia Orthopoxvirus: Venus Reporter Primary qHTS | Potency, µM (highest dose often 36.5 µM), inactives show at the highest dose activity change, negative = inhibition, usual class: inhibitors | Vaccinia virus Venus reporter expression, fluorescence | AID 720580, 2013 | 0.46% of 330,000 active; active means well fitted inhibition curve with a large enough effect; inconclusive means small, poorly fitted or top-dose-only effect; inactive means no such curve, though single readings can be large or run the other way; tested in A549 cells; further: nearly all actives have a fitted effect of over 30% in size; inactives centre near -10
# Vaccinia mCherry: qHTS for Stage-Specific Inhibitors of Vaccinia Orthopoxvirus: mCherry Reporter Primary qHTS | Vaccinia virus mCherry reporter infection, fluorescence; about a quarter of the inactives have no number | Potency, µM (series often up to 36.5 µM), for the others: top-dose activity change, negative = inhibition, most hits filed as inhibitors | 0.63% of 310,000 active | AID 720579, 2013; active = well fitted inhibition curve with a large enough effect; inconclusive = small, poorly fitted or top-dose-only effect; inactive = no such curve, though single readings can be large or run the other way; tested in A549 cells; further: nearly all actives have a fitted effect of over 35% in size; inactives centre near -10
# Starred values were filed as active, the others as inactive; i = inactive; ? = inconclusive; nt = not tested or not shown; & = joins results of further samples; [ ] = remark or other dose. On the % scale 0 is the no-effect control and ±100 the full control effect; potency means the concentration at half of the fitted maximal effect.
SMILES,Vaccinia Venus,Vaccinia mCherry
Cc1cc(C)c2oc(C(=O)Nc3ccc(S(=O)(=O)N4CCCCC4)cc3)cc(=O)c2c1,-5%,-2%
COc1ccc(CC(=O)O)cc1O,-5%,i
CC(C)CN1CCN(Cc2nc(C(C)C)cs2)CC1CCO (stereo not drawn),-12%,-7%
CN(C)CCCNc1c2ccccc2nc2ccccc12,8.9µM*,7.1µM*
CCc1nnc(N2C(=O)c3ccccc3C2(O)c2ccccc2)s1 (stereo not drawn),-17%,-28%
COc1ccc(OC)c(C(=O)c2ccc(C(=O)N3CCN(Cc4csc(C)n4)CC3)cc2)c1,-6%,-2%
COc1ccc(-c2cc3cc(OC)c(OC)cc3cn2)cc1OC,-8%,-4%
CCCCN(C)CCN1C(=O)C2C(C(=O)Nc3ccc(Cl)cc3)C3C=CC2(O3)C1C(=O)NC1CCCCC1 (stereo not drawn),-25%,i
COc1ccc(CCNC(=O)CSCc2ccc(F)cc2)cc1OC,0%,-13%
COc1ccc(CN2CCn3nc(C(=O)NC(C)C)cc3C2=O)cc1,-6%,i
COc1ccc(N2C(=O)CC3(CCCC3)CC2=O)cc1,-3%,-19%
Cc1ccc2cc(/C=C/C(=O)c3ccco3)c(Cl)nc2c1,-7%,7%
COc1cc(C(C(=O)NC2CCCCC2)N(C(=O)c2snc(C(N)=O)c2N)c2ccc(C)cc2)ccc1O (stereo not drawn),-23%,?
COc1ccc(C(c2nnnn2Cc2ccccc2)N2CCN(c3ccccc3)CC2)cc1 (stereo not drawn),?,nt
Cc1occc1-c1nnc(SCC(=O)Nc2ccccc2)n1CCc1ccccc1,-15%,-28%
Cc1coc2cc3oc(=O)c(CCC(=O)NCCCN4CCCC4=O)c(C)c3cc12,-2%,35%[activator]
Cc1nc2cc(CO)ccc2n1C,-3%,-1%
O=C(OCC(=O)N1CCC(c2ccccc2)=N1)c1ccc([N+](=O)[O-])s1,?,?
COC(=O)c1ccc(Cn2c(=O)cc(C(F)(F)F)c3c(C)nn(C)c32)cc1,2%,-9%
O=C(NN1CCOCC1)c1ccc(Cl)s1,-3%,i
Cc1ccc(Cc2cn3cc(-c4ccccc4)nc3s2)cc1,0%,10%
CC(C)(O)C(=O)NN(Cc1ccccc1)c1ccccc1,1%,?
C[C@H]1CN([C@@H](C)CO)C(=O)CCCn2cc(nn2)CO[C@@H]1CN(C)C(=O)Nc1ccccc1C(F)(F)F,1%,-14%
Cc1nc(NCc2ccccc2)c2cc[nH]c2n1,-11%,-8%
COc1ccc(CN2CCN(C(=O)CCC(=O)c3ccc(C)s3)CC2)cc1OC,-8%,-11%
# Later entries:
SMILES,Vaccinia Venus,Vaccinia mCherry
CCOC(=O)C1CCN(C2CCN(Cc3nc(-c4ccccc4)no3)CC2)CC1,-14%,-10%
CCCCc1nn2c(=O)cc(COC(=O)C3CCCCC3)nc2s1,10%,2%
CCCS(=O)(=O)N1CCC(C(=O)N2CCN(C(=O)OCC)CC2)CC1,?,nt
COc1ccc2sc(N(Cc3cccnc3)C(=O)c3cccs3)nc2c1,?,?
CCCCOC(=O)c1ccc(NC(=O)c2cc3c(=O)n4cccc(C)c4nc3s2)cc1,4%,-5%
Cc1ccc(C(C(=O)Nc2ccc(C(C)C)cc2)N(C)C(=O)c2ccc(=O)[nH]c2)cc1 (stereo not drawn),-24%,-10%
CCOc1ccc(N2CC(C(=O)NCc3ccc(C)n3C)CC2=O)cc1 (stereo not drawn),-2%,7%
CCSc1nc(O)c(C2OC(=O)c3c2ccc(OC)c3OC)c(=O)n1CC (stereo not drawn),-4%,-10%
Cc1cc(C)n(-c2nc3c(c(=O)[nH]c(=O)n3C)n2CC(O)c2ccccc2)n1 (stereo not drawn),-8%,nt
COc1ccc2oc(C(=O)Nc3nccs3)c(C)c2c1,0%,2%
COC(=O)c1c(SCC(=O)Nc2cc(C)cc(C)c2)[nH]c2ccccc2c1=O,-18%,-22%
COc1ccc(CCN2C(=O)N(c3ccc(C)cc3)C(=O)C2CC(=O)Nc2ccc(F)cc2)cc1 (stereo not drawn),-20%,-22%
O=S(=O)(c1ccccc1)N1CCN(Cc2ccccc2C(F)(F)F)CC1,-24%,-5%
Cc1cc(C)c2nc(NC(=O)c3ccc([N+](=O)[O-])o3)sc2c1,?,10µM*
CCc1ccc(C(=O)CCC(=O)Nc2ccc(OC)c(S(=O)(=O)N3CCCCC3)c2)cc1,-12%,-5%
COc1ccccc1-c1nnc(NC(=O)c2cccc(N3C(=O)CCC3=O)c2)o1,-18%,-19%
COc1ccc(NC(=O)c2ccc(NCCCN3CCOCC3)c([N+](=O)[O-])c2)cc1,-27%,-4%
COc1ccc(NC(=O)CN(C)C(=O)c2cn(-c3ccccc3)nc2-c2ccc(Cl)cc2)cc1,?,-25%
Cc1ccc(NC(=O)COC(=O)CCNS(=O)(=O)c2c(Cl)cccc2Cl)cc1,-11%,-2%
CN1CCc2c(sc3c2C(=O)NC(c2ccc(-c4cccc(Cl)c4)o2)N3)C1 (stereo not drawn),-18%,?
Cc1[nH]c2ccccc2c1-c1csc(N)n1,21%,-13%
COc1ccc(CCNC(=O)CS(=O)(=O)Cc2nc(-c3ccccc3Cl)oc2C)cc1OC,-15%,i
O=C(COc1ccc(S(=O)(=O)Nc2ccc(Cl)cc2)cc1)N1CCOCC1,-16%,i
Cc1oc(-c2ccc(Cl)cc2)nc1CN1CCC(C(=O)N2CCN(Cc3ccccc3)CC2)CC1,-24%,-29%
CNc1cc(-c2cccc(C(=O)N3CCOCC3)c2)ncn1,-10%,20%
# Other structures:
SMILES,Vaccinia Venus,Vaccinia mCherry
COCCN1C(=O)N(c2cccc(OC)c2)C(=O)C1CC(=O)Nc1ccc(Cl)cc1 (stereo not drawn),?,-7%
NC(=O)c1ccc(Nc2ccc3nonc3c2[N+](=O)[O-])cc1,-4%,-3%
CC(C)n1c(SCC(=O)N2CCCC2)nc2c1c(=O)n(C)c(=O)n2C,-6%,-11%
Cc1ccc2nc(COC(=O)CNC(=O)c3ccccc3)cn2c1,-4%,-6%
COc1ccc(C(=O)CSc2nnc(CNC(=O)c3ccco3)n2C)cc1,-5%,2%
Cc1ccc(NC(=O)OCCN2CCN(Cc3ccccc3)CCC2=O)cc1C,-18%,i
Cn1cc(C(=O)c2ccc(Cl)cc2Cl)cc1C(=O)N/N=C(\N)COc1ccccc1,?,nt
FC(F)(F)c1cccc(-c2nc3nc(Cl)c(Cl)nc3[nH]2)c1,?,?
COc1cccc(C(=O)Nc2ncc3c(n2)CC(C)(C)CC3=O)c1,?,nt
NC(=O)CCn1c2ccccc2c2ccccc21,5%,i
Cn1c(CC(=O)Nc2ccccc2Cl)nnc1SCC(=O)NC1CCCCC1,-4%,i
Cc1cc(C)cc(OCC(=O)Nc2c(C)ccc3nsnc23)c1,-10%,-19%
CCC(=O)c1cn(Cc2ccccc2)c2ccccc12,-11%,-11%
COc1ccc(S(=O)(=O)N2CCC(C(=O)NCc3ccncc3)CC2)cc1,-15%,-7%
O=C(CSc1nc(=O)n(Cc2cccnc2)c2c1CCC2)Nc1cccc(Cl)c1,-13%,-27%
Cc1ccc(C(=O)Nc2nnc(SCc3cc(=O)c4c(C)ccc(C)c4[nH]3)s2)cc1,-18%,-25%
O=C(N/N=C/c1cccc([N+](=O)[O-])c1)C(=O)N1CCCCCC1,-11%,i
C[C@H]1CN(CCc2ccccc2)C(=O)[C@@H]1CC(=O)NCc1ccccc1,0%&-7%,-5%
COc1ccc(NC2CCCN(C(=O)COc3ccc(C)cc3)C2)cc1 (stereo not drawn),-10%,-5%
CCOc1ccc(CN(CC)C(=O)c2ccc3c(c2)[nH]c(=O)c(=O)n3CC)cc1OC,7%,7%
CN(C)Cc1cn(CC[C@@H]2CC[C@@H](NC(=O)Nc3ccccc3F)[C@@H](CO)O2)nn1,-9%,-6%
O=[N+]([O-])c1ccc(CCn2ccnc2)cc1,-5%,i
COc1cccc(/C=C/C(=C2/C(=O)N(c3ccccc3)N=C2C)c2ccc(Br)cc2)c1OC,-2%,-7%
Nc1ncnc2c1ncn2[C@@H]1O[C@H](C(=O)NCCCN2CCCC2=O)[C@@H](O)[C@H]1O,-11%,i
CCCCCCCCOC(=O)CCc1c(C)[nH]c(=S)[nH]c1=O,-13%,nt
# Next compounds:
SMILES,Vaccinia Venus,Vaccinia mCherry
COc1ccccc1-c1ccc2ncnc(N3CCN(C)CC3)c2c1,0%,i
O=C(Nc1cccc(F)c1)c1coc(=O)c(Br)c1,-12%,i
Cc1cccc(-n2nnc(C(=O)N3CCc4ccccc4C3)c2N)c1,-7%,4%
CN(CC(=O)Nc1ccc(F)cc1)C(=O)COC(=O)Cc1cccs1,-18%,-22%
Cc1ccc(S(=O)(=O)Nc2cc(=O)[nH]c(SCc3ccccc3Cl)n2)cc1,?,-3%
O=C(COc1ccc(S(=O)(=O)N2CCCCC2)cc1)NCC1CCCO1 (stereo not drawn),-7%,i
NC(Cc1ccc(C(F)(F)F)cc1)c1csc(Nc2ccc(C(=O)NCCCO)cn2)n1 (stereo not drawn),-6%,-9%
Nn1c(SCc2cn3cc(Cl)ccc3n2)nnc1-c1ccncc1,-6%,-8%
O=C1CSC(c2cn(-c3ccccc3)nc2-c2cc3ccccc3oc2=O)N1Cc1ccccc1 (stereo not drawn),?,-6%[1.46 µM]
CCCC1N=C2c3ccccc3N=C(SCC(=O)NCCc3ccc(Cl)cc3)N2C1=O (stereo not drawn),-2%,-1%
Oc1ccc2c3c1OC1c4oc5ccccc5c4C[C@@]4(O)[C@@H](C2)N(CC2CC2)CC[C@]314 (stereo partly drawn),-12%,i
COc1ccc(-n2ncc3c(=O)n(Cc4c(F)cccc4Cl)cnc32)cc1,-2%,i
C[C@H]1CN([C@@H](C)CO)S(=O)(=O)c2ccc(Br)cc2O[C@H]1CN(C)Cc1ccccc1F,-30%,-23%
COc1cc(OC)c2c(-c3cccc(-c4ccc(C(F)(F)F)cc4)c3)cc(=O)oc2c1,?,?
O=C(O)CCc1nc(-c2ccc(Cl)cc2)no1,-3%,-7%
COc1cccc(NS(=O)(=O)c2ccc3[nH]cc(C(=O)NCCN4CCOCC4)c(=O)c3c2)c1,-10%,nt
COc1ccc(F)cc1C(=O)C1CCCN(C(=O)Cc2c(C)noc2C)C1 (stereo not drawn),-7%,-27%
CC1(C(=O)NS(=O)(=O)c2cccc(F)c2)CCN1C(=O)CC1CCCCC1 (stereo not drawn),-4%,i
O=S(=O)(NCc1cccs1)c1cccc(S(=O)(=O)N2CCCCC2)c1,-23%,-23%
S=C(NCCC1=CCCCC1)Nc1ccc(Cl)cc1,-12%,-13%
CCCS(=O)(=O)N1CCN(C(=O)c2ccc(-c3ccccc3)cc2)CC1,-18%,-24%
O=C(C1CCC(CNS(=O)(=O)c2cccc3cccnc23)CC1)N1CCc2ccccc21 (stereo not drawn),-21%,-26%
O=C(Cc1ccc(Cl)cc1)NCCS(=O)(=O)N1CCN(c2ccccc2)CC1,-15%,?
CCCc1ccc2oc(C(=O)N3CCN(c4cnccn4)CC3)c(C)c2c1,-15%,-17%
COc1cc(C(=O)Nc2nnc(CC(=O)N3CCOCC3)s2)cc(OC)c1OC,6%,1%
O=C(NCCCc1nc2ccccc2n1Cc1ccccc1Cl)c1ccco1,-13%,-18%
O=C(O)CSc1sc(=S)sc1SCC(=O)O,0%,-8%
O=C(O)c1cccc(-n2cccc2/C=C\[N+](=O)[O-])c1,3%,-1%

# Quoted from the entries so far, 3 compounds:
SMILES,Vaccinia Venus,Vaccinia mCherry
CC1(C(=O)NS(=O)(=O)c2cccc(F)c2)CCN1C(=O)CC1CCCCC1 (stereo not drawn),-4%,i
O=S(=O)(NCc1cccs1)c1cccc(S(=O)(=O)N2CCCCC2)c1,-23%,-23%
S=C(NCCC1=CCCCC1)Nc1ccc(Cl)cc1,-12%,-13%

# Gathered by group: those above with fluorine
SMILES,Vaccinia Venus,Vaccinia mCherry
COc1ccc(CCNC(=O)CSCc2ccc(F)cc2)cc1OC,0%,-13%
COC(=O)c1ccc(Cn2c(=O)cc(C(F)(F)F)c3c(C)nn(C)c32)cc1,2%,-9%
C[C@H]1CN([C@@H](C)CO)C(=O)CCCn2cc(nn2)CO[C@@H]1CN(C)C(=O)Nc1ccccc1C(F)(F)F,1%,-14%
COc1ccc(CCN2C(=O)N(c3ccc(C)cc3)C(=O)C2CC(=O)Nc2ccc(F)cc2)cc1 (stereo not drawn),-20%,-22%
O=S(=O)(c1ccccc1)N1CCN(Cc2ccccc2C(F)(F)F)CC1,-24%,-5%
FC(F)(F)c1cccc(-c2nc3nc(Cl)c(Cl)nc3[nH]2)c1,?,?
CN(C)Cc1cn(CC[C@@H]2CC[C@@H](NC(=O)Nc3ccccc3F)[C@@H](CO)O2)nn1,-9%,-6%
O=C(Nc1cccc(F)c1)c1coc(=O)c(Br)c1,-12%,i
CN(CC(=O)Nc1ccc(F)cc1)C(=O)COC(=O)Cc1cccs1,-18%,-22%
NC(Cc1ccc(C(F)(F)F)cc1)c1csc(Nc2ccc(C(=O)NCCCO)cn2)n1 (stereo not drawn),-6%,-9%
COc1ccc(-n2ncc3c(=O)n(Cc4c(F)cccc4Cl)cnc32)cc1,-2%,i
C[C@H]1CN([C@@H](C)CO)S(=O)(=O)c2ccc(Br)cc2O[C@H]1CN(C)Cc1ccccc1F,-30%,-23%
COc1cc(OC)c2c(-c3cccc(-c4ccc(C(F)(F)F)cc4)c3)cc(=O)oc2c1,?,?
COc1ccc(F)cc1C(=O)C1CCCN(C(=O)Cc2c(C)noc2C)C1 (stereo not drawn),-7%,-27%
CC1(C(=O)NS(=O)(=O)c2cccc(F)c2)CCN1C(=O)CC1CCCCC1 (stereo not drawn),-4%,i
